KCNQ2 enhance – enhances the rat KCNQ2 potassium channel; O88943; CHO-K1 KCNQ2, FluxOR thallium flux fluorescence; hits give high values; B-score at 10 µM; actives 0.54% (n = 310,000);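 active means fluorescence ratio B-score at least 3 SD of library B-scores, with initial fluorescence B-score within 3 SD, cut at about 5.3 in these data; same plate scores as AID 2156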;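 further: B-score of peak minus minimum over baseline fluorescence ratio after K+ and Tl+ stimulus; positive B-score means potentiation of KCNQ2 with more thallium influx and brighter signal; only the inactives scoring about 0 or higher are listed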
Target sequence (O88943 whole entry, looked up): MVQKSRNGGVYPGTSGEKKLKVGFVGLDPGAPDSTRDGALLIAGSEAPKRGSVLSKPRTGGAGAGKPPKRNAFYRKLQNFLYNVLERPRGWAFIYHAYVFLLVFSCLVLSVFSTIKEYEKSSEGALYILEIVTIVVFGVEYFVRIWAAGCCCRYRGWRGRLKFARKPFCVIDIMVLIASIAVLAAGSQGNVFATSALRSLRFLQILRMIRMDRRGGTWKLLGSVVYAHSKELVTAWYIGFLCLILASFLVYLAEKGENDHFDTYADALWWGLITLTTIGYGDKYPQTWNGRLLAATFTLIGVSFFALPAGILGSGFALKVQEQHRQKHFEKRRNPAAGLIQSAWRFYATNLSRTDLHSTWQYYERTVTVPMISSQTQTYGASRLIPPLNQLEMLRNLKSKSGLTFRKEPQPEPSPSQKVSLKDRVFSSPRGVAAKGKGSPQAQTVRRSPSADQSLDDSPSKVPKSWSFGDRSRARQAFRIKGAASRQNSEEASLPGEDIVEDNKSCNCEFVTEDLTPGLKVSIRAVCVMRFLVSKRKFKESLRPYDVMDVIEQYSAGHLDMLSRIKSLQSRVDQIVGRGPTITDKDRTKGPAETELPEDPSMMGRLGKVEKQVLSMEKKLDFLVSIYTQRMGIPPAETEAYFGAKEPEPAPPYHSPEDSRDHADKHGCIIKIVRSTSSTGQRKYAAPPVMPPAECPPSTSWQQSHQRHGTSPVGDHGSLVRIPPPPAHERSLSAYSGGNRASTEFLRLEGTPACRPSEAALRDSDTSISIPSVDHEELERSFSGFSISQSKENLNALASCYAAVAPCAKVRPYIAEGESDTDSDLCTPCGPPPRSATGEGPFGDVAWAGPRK
KCNQ2 enhance baseline – also measured in KCNQ2 enhance; calls as there; B-score; compound at 10 µM; measured here: initial fluorescence intensity artifact check;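 brightness before thallium and not channel activity; 0 = typical well and far values either way flag optical interference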
The depositor's hits bear a star. This is a subset, so the mix of outcomes need not match the whole.

KCNQ2 enhance	KCNQ2 enhance baseline	structure
0.59	0.33	CC1=C(C(=O)OC(C)C)C(c2cccnc2)C2=C(CC(C)(C)CC2=O)N1 (stereo not given)
0.85	0.66	O=c1c2ccccc2cnn1Cc1ccc(Br)cc1F
0.13	-1	C[C@@H](C(=O)Nc1ccc2c(c1)OCO2)n1c(=O)[nH]c2ccccc2c1=O
0.68	-0.35	CC1CCCN(S(=O)(=O)Cc2ccc(Cl)cc2)C1 (stereo not given)
2.5	1.1	CC1(C)Cc2c(sc(NC(=O)C(=O)N3CCCC3)c2C(=O)O)CO1
1.4	-1	CCc1ccc(OS(=O)(=O)c2cn(C)c(=O)n(C)c2=O)cc1
1.1	-0.46	COc1ccc(NC(=O)c2cc3ccc4c5ccccc5[nH]c4c3cc2O)cc1
1.1	0.7	N#CC1(P(=O)(c2ccccc2)c2ccccc2)CC1
0.48	1.1	Cc1ccnc(-n2sc3ccccc3c2=O)n1
1.3	1.3	Cc1c(C(=O)OCc2ccccc2)[nH]c2c1C(=O)CC(c1ccco1)C2 (stereo not given)
2.3	-0.09	CC1CCc2c(sc3nc(SCC(=O)NCc4ccco4)nc(N)c23)C1 (stereo not given)
1.5	-1.6	CCc1nc2n[nH]c(N)c2c2c1CSC(C)(C)C2

Four entries from above, with values under each structure.
Values in the order: KCNQ2 enhance	KCNQ2 enhance baseline
> CCc1ccc(OS(=O)(=O)c2cn(C)c(=O)n(C)c2=O)cc1
    1.4	-1
> COc1ccc(NC(=O)c2cc3ccc4c5ccccc5[nH]c4c3cc2O)cc1
    1.1	-0.46
> N#CC1(P(=O)(c2ccccc2)c2ccccc2)CC1
    1.1	0.7
> Cc1ccnc(-n2sc3ccccc3c2=O)n1
    0.48	1.1

(list continues)
KCNQ2 enhance	KCNQ2 enhance baseline	structure
0.41	3.5	Cc1cc(=O)oc2c3c(cc(OCC(=O)NC(C)C)c12)OC(C)(C)CC3
0.32	-0.69	Cn1nnc2cc(C(=O)Nc3ccc(Cl)cc3)ccc21
0.14	-0.82	C=CCOc1c(/C=N\NC(N)=O)cccc1OC
0.87	1.3	CN(Cc1cccnc1)Cc1cn(Cc2ccccc2)nc1-c1ccc2c(c1)OCO2
0.06	-1.6	COc1ccc(NC2=CC(=O)CC(c3ccccc3)C2)c(OC)c1 (stereo not given)
1	0.81	CCCCCC(=O)Nc1ccc(-c2csc(C)n2)cc1
1.3	1.4	CCCc1c(C(=O)N/N=C/c2cccc3ccccc23)nnn1-c1nonc1N
0.86	-0.06	Cn1c(=O)c2[nH]cnc2n(C)c1=O
0.01	-0.02	Cc1cc(F)ccc1S(=O)(=O)NCC(c1ccc2c(c1)OCO2)N1CCOCC1 (stereo not given)
4.6	0.04	CCC(C)c1ccc(C(CC)NC(=O)C2CCCO2)cc1 (stereo not given)
0.24	-0.62	COc1ccc(-c2nnc(SCc3nc4ccccc4c(=O)[nH]3)o2)cc1
0.05	2.1	O=C(O)/C=C/C(=O)Nc1ccc(F)cc1F
0.32	-2.7	COc1ccc(C(=O)NC(=S)NCc2ccco2)cc1Br
0.91	-0.01	CCOc1ccccc1NC(=O)c1ccccc1N(C)S(C)(=O)=O
0.13	-1.4	CC(=Nc1ccccc1O)c1sc2ccccc2c1O
2.2	0.07	OC(COc1ccc2c(c1)CCC2)Cn1cnc2ccccc21 (stereo not given)
0.55	0.73	COc1ccc(C(=O)Cn2nnc(-c3ccccc3NC(=O)C3CC3)n2)cc1
0.5	-1.2	Cc1ccc(S(=O)(=O)N(CC(O)CN2C(=O)NC(C)(C)C2=O)c2cccc([N+](=O)[O-])c2)cc1 (stereo not given)
1.2	-0.6	COc1ccc(NC(=O)N2CCCC2C(=O)Nc2ccccc2F)cc1 (stereo not given)
0.67	0.68	O=C(COC(=O)c1ccc(NS(=O)(=O)c2cccs2)cc1O)NC1CCCCC1
0.04	-0.02	CCOc1cc(NC(=O)Nc2ccccc2)c(OCC)cc1NC(=O)CC
0.45	0.26	CCCc1cc(=O)[nH]c(SCC(=O)c2c(C)[nH]c3ccccc23)n1
1.2	-0.76	O=C(CCS(=O)(=O)c1ccc(Br)cc1)NCc1cccs1
0.75	0.77	O=C(COC(=O)c1cccc(S(=O)(=O)N2CCCC2)c1)NCc1ccccc1
1.1	0.18	CC(=O)NCCn1c(SCC(=O)c2ccccc2)nc2ccccc2c1=O
1	-0.57	Cc1cc(NC(=O)Cn2c(=O)oc3ccc(Cl)cc32)no1
0.52	-1.8	CCOC(=O)Cn1c(COc2ccccc2OC)[n+](C)c2ccccc21
0.77	-0.28	CN(C)c1nc(N(C)C)nc(N(C#N)CN2C(=O)c3ccccc3C2=O)n1
0.73	2.2	Cn1c(=O)c2c(nc(SCc3cccnc3)n2Cc2ccccc2)n(C)c1=O
1	-0.71	COc1cc(Cl)c(C)cc1NC(=O)c1ccc2c(SCC(=O)O)c3c(nc2c1)CCCC3
1.7	0	COc1ccccc1NS(=O)(=O)c1cccc(NC(=O)NC2CCCCC2)c1
0.82	-0.31	Cc1cc(C)cc(NC(=O)C(=O)NCC2CCCN2S(=O)(=O)c2cccs2)c1 (stereo not given)
1.5	-1.1	BrC(=C\c1ccccc1)/C=N/N1CCN(c2ccccn2)CC1
0.57	-0.11	O=C(NCc1nnc2c(C(F)(F)F)cc(Cl)cn12)c1cccs1
1.2	-0.67	COc1ccccc1N1CCN(Cc2cc3c(cc2O)OCO3)CC1
1.3	5	CC(=O)N/N=C/C1=CCC2CC1C2(C)C (stereo not given)
0.02	0.56	CCOC(=O)NCc1ccc(S(=O)(=O)Nc2ccc(C)cc2)cc1
2.3	-1.7	CC(=O)c1ccc(NC(=O)C(C)OC(=O)C(C)Oc2cccc(C)c2)cc1 (stereo not given)
0.02	0.72	COc1cc(/C=C2/N=C(C3CCCCC3)OC2=O)cc(OC)c1OC
0.78	0.76	O=C(NC(=S)NCc1ccccc1)c1ccccc1F
0.44	-1.9	CC(C)NC(=O)C(=O)NCCCOC(C)C
0.89	0.02	CCn1nc(C)c(/C=N/NC(=O)c2c[nH]c3ccccc23)c1C
0.99	-2.2	COc1ccc(S(=O)(=O)NCCCCC(=O)O)cc1C(=O)O
5.1	-2.3	CCC(=O)Nc1cccc(C(=O)c2ccc(C)c(C)c2)c1
1.1	-1.5	S=C(NCc1ccc2[nH]c3c(c2c1)CCCC3)Nc1ccccc1Cl
0.15	2.9	COCCCNc1cc(C)nc2ccccc12
1.4	-0.28	Cc1ccc(-c2nc(SCC(N)=O)c(C#N)c3c2CCCC3)cc1
0.68	0.55	CC(=O)c1cc2c(cc1N/C(=N/S(=O)(=O)c1ccc(C)cc1)c1ccccc1)OCO2
0.85	0.08	Cc1ccc(SCc2cc(=O)n3[nH]c(C)nc3n2)cc1
0.39	-0.75	COc1ccc(Cc2nnc(NC(=O)Nc3ccc(F)cc3)s2)cc1OC
0.04	-0.05	CCN(C(=S)NC(=O)C1CC1)c1ccccc1
0.58	-0.05	CC(=O)c1c(Nc2ccc3c(c2)OCCO3)oc(C)cc1=O
0.24	-0.74	CC(=Nc1ccc2c(c1)nc(CO)n2C)C1=C(O)CC(C)(C)CC1=O
0.96	-0.09	CC[n+]1c(-c2ccccc2)csc1Nc1c(C)n(C)n(-c2ccccc2)c1=O
0.09	-0.57	CC(Oc1ccccc1)C(=O)N=Nc1c(O)[nH]c2ccc(Br)cc12 (stereo not given)
1.8	-0.81	Cc1sc(NC(=O)CS(=O)(=O)c2ccccc2)c(C(N)=O)c1C
0.02	-0.46	Cc1ccnc(NC(=O)CNC(=O)Cc2cccc3ccccc23)c1
0.46	1.1	O=C(O)c1cnn(-c2nc(-c3cccc(F)c3)cs2)c1C(F)(F)F
0.87	0.84	Cc1[nH]c(C)c(S(=O)(=O)N2CCC(C)CC2)c1C(=O)N1CCCC1
0.89	-0.64	COc1ccc(N2CCN(C(=O)Cc3cccs3)CC2)cc1

Additional results:
KCNQ2 enhance	KCNQ2 enhance baseline	structure
1.6	1.3	Cc1cccc(/C=N/n2c(C)cc(C)c(C#N)c2=O)c1
0.45	-0.62	CC(=O)CNc1ccc(S(=O)(=O)N/N=C/c2ccccc2)cc1
0.69	1.1	COCC(=O)Nc1cc(C)cn(Cc2cccc(C(F)(F)F)c2)c1=O
1.1	-1.4	Cc1ccc(S(=O)(=O)Nc2cc3c4c(c2)CCN4C(=O)CC3)cc1
0.18	0.02	CCOC(=O)C1(Cc2ccccc2C)CCCN(C(=O)c2ccnn2C)C1 (stereo not given)
1.3	-0.63	COc1ccc(CCN(C)C2CCCN(C(=O)Cn3cnnn3)C2)cc1OC (stereo not given)
1.8	0.96	C=CCSc1nnc(-c2cccnc2)o1
0.46	1.8	CCc1nc2sc3c(c2c(=O)n1CCO)CCC3
2.2	0.01	COc1ccc(-c2cc(C(=O)NCc3ccc(Cl)cc3)no2)cc1OC
0.57	-0.47	Cc1noc(/C=C/Nc2ccc(F)cc2F)c1[N+](=O)[O-]
0.76	2.6	O=C(Nc1nc2c(Cl)cccc2s1)C1CC1
0.01	-0.7	Cc1ccc(CN2CCN(CC3CC4C=CC3C4)CC2)cc1 (stereo not given)

Exported as a markdown table: 5 of the compounds above
| canonical_smiles | KCNQ2 enhance | KCNQ2 enhance baseline |
| --- | --- | --- |
| CCOC(=O)C1(Cc2ccccc2C)CCCN(C(=O)c2ccnn2C)C1 (stereo not given) | 0.18 | 0.02 |
| COc1ccc(CCN(C)C2CCCN(C(=O)Cn3cnnn3)C2)cc1OC (stereo not given) | 1.3 | -0.63 |
| C=CCSc1nnc(-c2cccnc2)o1 | 1.8 | 0.96 |
| CCc1nc2sc3c(c2c(=O)n1CCO)CCC3 | 0.46 | 1.8 |
| COc1ccc(-c2cc(C(=O)NCc3ccc(Cl)cc3)no2)cc1OC | 2.2 | 0.01 |

Continued.
KCNQ2 enhance	KCNQ2 enhance baseline	structure
2.5	-2.5	Cc1cc([N+](=O)[O-])ccc1NC(=O)C(C)[n+]1ccccc1 (stereo not given)
1.7	-0.37	O=C1CC(c2cccs2)CC2=C1C(c1ccccc1)n1ncnc1N2 (stereo not given)
0.08	-0.14	CC(=O)Nc1nc(C)nc(-c2ccccc2OC(C)=O)n1
1.2	0.6	CN(C(=O)COC(=O)/C=C/c1ccc(F)cc1)c1c(N)n(Cc2ccccc2)c(=O)[nH]c1=O
1.2	-1.7	Cc1ccc2c(c1)C=CC(C)(C)S2=O (stereo not given)
1.3	0.01	CCO[C@H]1OC(C(=O)NC2CC2)=C[C@@H](c2csc3ccccc23)[C@@H]1CCCO
1.9	0.48	O=C(Cc1ccc(Cl)cc1)Nc1cc(Cl)ccn1
0.02	-0.04	CC(C)NC(=O)N1CCN(c2ccncc2S(=O)(=O)N2CCOCC2)CC1
0.44	-0.79	N#Cc1c(-c2ccco2)cc(-c2ccccn2)nc1N
0.3	-0.03	CCc1ccc(N2NC(=O)/C(=C/C=C/c3ccco3)C2=O)cc1
1.5	-0.96	CN(CC(=O)Nc1cccc(F)c1)C(=O)c1ccc(OCC2CCCO2)cc1 (stereo not given)
0.06	0.02	O=C(CC(Nc1ccccc1)c1ccccc1)C1CC1 (stereo not given)

Record cards, from the list above. Order of screens: KCNQ2 enhance	KCNQ2 enhance baseline
CCc1ccc(N2NC(=O)/C(=C/C=C/c3ccco3)C2=O)cc1 as listed: 0.3	-0.03
O=C(Cc1ccc(Cl)cc1)Nc1cc(Cl)ccn1 as listed: 1.9	0.48

Continuation.
KCNQ2 enhance	KCNQ2 enhance baseline	structure
0.03	-2.1	COc1cc(C(C)=O)ccc1OCC(O)CN1CCN(c2ccc(C)c(C)c2)CC1 (stereo not given)
0.23	0.85	Cc1ccc(NC(=O)Cn2cnc3sc(C(=O)NCCN(C)C)c(C)c3c2=O)cc1Cl
1	0.36	Cc1cc(NC(=O)CCCn2ccc([N+](=O)[O-])n2)n(Cc2ccc(F)cc2)n1
1.8	0.01	CN(CC(=O)NC1CCCCC1)S(=O)(=O)c1cccc2cccnc12
0.03	1	O=C(CCn1c(=O)oc2ccccc21)NCc1ccco1
1.1	0.05	COc1ccc(/C=N/n2nnnc2N)c(OC)c1
0.9	-0.6	CC(=O)NS(=O)(=O)c1ccc(NC(=O)CN2C(=O)C3C4C=CC(C4)C3C2=O)cc1 (stereo not given)
2.2	5.8	COc1ccccc1N1C(=O)C2C3CC(c4ccccc4)C(C3)C2C1=O (stereo not given)
0.68	-0.07	O=C(Nc1cccc(-c2nc3ncccc3o2)c1)c1ccco1
0.44	-1.4	COCCN(Cc1cc2cc(C)c(C)cc2nc1Cl)C(=O)N1CCOCC1
1.7	-0.48	O=C(C1CCN(S(=O)(=O)c2cccc3nsnc23)CC1)N1CCCc2ccccc21
0.59	-0.72	Cc1c(C(=O)NCCN2C(=O)S/C(=C\c3cccs3)C2=O)cccc1[N+](=O)[O-]
0.78	0.25	COc1ccc(N(CC(=O)NCCSC2CCCCC2)S(C)(=O)=O)c(OC)c1
1.9	-1.2	Cc1ccc(NC2CCCN(C(=O)c3ccccc3N3CCOCC3)C2)cc1C (stereo not given)
0.13	-0.09	O=C(CSc1nccc(=O)[nH]1)NC1CCCC1
1.1	0.2	COc1ccc(Cn2nnnc2C(c2ccccc2)N2CCN(C3CCCC3)CC2)cc1 (stereo not given)
0.03	0.97	COc1cc(/C=N/NC(=O)c2ccc(NC(=O)C3CC3)cc2)ccc1OC(C)=O
0.06	1.1	CCc1ccc(C(=O)C(C)OC(=O)c2nc3nc(C)cc(C)n3n2)cc1 (stereo not given)
1.5	0.62	CC(C)N1C(=O)C2C(C(=O)NCc3ccccc3)C3C=CC2(O3)C1C(=O)NC(C)(C)C (stereo not given)
2	-1.3	CN(C)c1nc2n(c(=O)n1)CCO2
0.11	-0.28	Fc1ccccc1NC(=S)Nc1cccc2cnccc12
0.81	0.01	Cn1c(CC(=O)Nc2ccc(F)cc2)nnc1SCC(=O)NC1CCCCC1
0.26	0.11	C/C(=N/N1CCN(c2ccccn2)CC1)c1cccc([N+](=O)[O-])c1
0.02	-1.3	O=[N+]([O-])c1cccc2ccc(/C=C/c3cccc(Br)c3)nc12
